Assay outcomes deposited in PubChem by National Center for Advancing Translational Sciences (NCATS).
EPAC1 ag val – validation of human EPAC1 agonists. O95398. EPAC1 Rap1b BODIPY-GDP exchange, fluorescence. Potency, µM, for the others: max response, positive = active, hits mostly activators. 1% of 16,000 active; active = well fitted activation curve with a large enough effect; inconclusive = small, poorly fitted or top-dose-only effect; inactive = no such curve, though single readings can be large or run the other way;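 note: nearly all actives have a fitted effect of over 70% in size; series mostly up to about 76 or 150 µM; scaled to a cAMP control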
Target sequence (O95398 whole entry, looked up): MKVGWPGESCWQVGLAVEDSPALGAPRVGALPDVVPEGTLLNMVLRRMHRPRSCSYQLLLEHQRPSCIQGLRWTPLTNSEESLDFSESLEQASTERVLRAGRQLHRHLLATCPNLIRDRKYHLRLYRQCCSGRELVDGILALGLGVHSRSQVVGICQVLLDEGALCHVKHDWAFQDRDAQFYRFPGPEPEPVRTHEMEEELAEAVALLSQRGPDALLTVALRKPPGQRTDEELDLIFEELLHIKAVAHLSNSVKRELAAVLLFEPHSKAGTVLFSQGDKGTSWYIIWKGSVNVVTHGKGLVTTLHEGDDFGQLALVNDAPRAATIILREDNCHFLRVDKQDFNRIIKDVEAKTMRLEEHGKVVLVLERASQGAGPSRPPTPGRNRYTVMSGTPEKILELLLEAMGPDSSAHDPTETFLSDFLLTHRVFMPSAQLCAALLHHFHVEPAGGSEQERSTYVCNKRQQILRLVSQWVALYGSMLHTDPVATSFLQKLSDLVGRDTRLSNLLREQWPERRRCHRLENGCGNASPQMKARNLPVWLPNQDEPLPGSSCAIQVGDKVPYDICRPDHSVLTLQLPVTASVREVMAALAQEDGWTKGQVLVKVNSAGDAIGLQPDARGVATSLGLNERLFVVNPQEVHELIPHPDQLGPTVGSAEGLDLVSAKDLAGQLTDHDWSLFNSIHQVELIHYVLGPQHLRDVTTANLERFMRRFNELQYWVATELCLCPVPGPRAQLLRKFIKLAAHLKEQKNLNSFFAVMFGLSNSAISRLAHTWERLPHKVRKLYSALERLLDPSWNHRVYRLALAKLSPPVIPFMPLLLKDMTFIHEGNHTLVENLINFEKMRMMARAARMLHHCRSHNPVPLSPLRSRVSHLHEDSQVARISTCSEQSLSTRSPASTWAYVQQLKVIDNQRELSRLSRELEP
An asterisk follows results filed as active; ? = inconclusive; & = joins results of further samples; ! = repeats disagree; [ ] = remark or other dose. % is set by controls: 0 for no effect and ±100 for the full control effect; potency is the fitted concentration of half-maximal effect. The list is partial; rates above refer to the full screens.

Compound | EPAC1 ag val
Cc1cc[n+](CC(=O)c2ccc(F)cc2)c2ccccc12 | 27%
c1csc(CNc2ncnc3ccc(-c4ccoc4)cc23)c1 | 13%
N#Cc1cccc(NC(=O)N2CCCC3(CCN(C(=O)c4cccc(F)c4)CC3)C2)c1 | -58%[inhibitor]
NS(=O)(=O)c1cc2c(cc1Cl)NC(CSCc1ccccc1)=NS2(=O)=O | -37%&8%[inhibitor]
CC1CN(CC(=O)NCCC2COc3ccccc3O2)Cc2cc(Cl)ccc2O1 (stereo not given) | 4%
C=C1C[C@@]23CC4C5[C@@]6(C)C[C@H](O)C[C@@]57C2[C@H](O)[C@@H]1[C@H](O)[C@H]3[C@H]7N4C6 | -10%
CO[C@H]1[C@H](NC(=O)c2ccncc2)c2ccccc2C12CCN(C(=O)c1ccoc1)CC2 | -1%
CN1CCN(c2nc(-c3ccccc3C(F)(F)F)nc3ccccc23)CC1 | 14%
COc1ccc([N+](=O)[O-])c2c1CCN2C(=O)CC[C@H](N)C(=O)O | 6%
CC(C)(C)CC(C)(C)c1ccc(O)c(Cc2ccc(Cl)cc2Cl)c1 | -28%
COC(=O)c1cc(=O)c(O)c2c(O)c(O)ccc2c1 | 25%
COc1ccc(NS(=O)(=O)c2ccc(N)cc2)nn1 | -4%&-11%
O=C(CCCN1CCN2CCCC2C1)c1ccc(F)cc1 (stereo not given) | -12%
CCCCNc1ccc(C(=O)OCCN(CC)CC)cc1 | 22%
COc1cc(-c2cc(C)c3cccc(OC)c3n2)cc2c1OCCN(C(=O)Cn1nc(C)cc1C)C2 | 2%
CC[C@H](C)CCCCC(=O)N[C@@H](CCN)C(=O)N[C@H](C(=O)N[C@@H](CCN)C(=O)N[C@H]1CCNC(=O)[C@H]([C@@H](C)O)NC(=O)[C@H](CCN)NC(=O)[C@H](CCN)NC(=O)[C@H](CC(C)C)NC(=O)[C@@H](CC(C)C)NC(=O)[C@H](CCN)NC1=O)[C@@H](C)O | 8%
CC(CN(C)C)C(C)(O)Cc1ccc(Cl)cc1 (stereo not given) | -34%[inhibitor]
CCC1(C2CCN(C(=O)c3ccccc3C)CC2)NC(=O)N(CCc2scnc2C)C1=O (stereo not given) | -8%
O=c1ccn([C@@H]2O[C@H](COP(=O)(O)O)[C@@H](O)[C@H]2O)c(=O)[nH]1 | -25%
Cc1ncoc1C(=O)NCc1nc(-c2cccc(NC(=O)c3ccccn3)c2)oc1C | 1%
O.O=C([O-])CC([S-])C(=O)[O-].[Au+].[Na+].[Na+] (stereo not given) | -26%
C/C(=C\c1ccc(C(=O)O)cc1)c1ccc2c(c1)C(C)(C)CCC2(C)C | -13%&-18%&-1%&0%
O=C(O)C[C@H]1c2ccccc2S(=O)(=O)N1C1CCCCC1 | -2%
C[C@@H]1CCC(=O)N(C[C@@H](C)CC#N)CC1 | ?
O=C(c1ccc(Cl)cc1)N1CCN(c2ccc([N+](=O)[O-])c3ncccc23)CC1 | -4%

A stretch from the list above:
Compound | EPAC1 ag val
C[C@@H]1CCC(=O)N(C[C@@H](C)CC#N)CC1 | ?
O=C(c1ccc(Cl)cc1)N1CCN(c2ccc([N+](=O)[O-])c3ncccc23)CC1 | -4%

New compounds follow.
Compound | EPAC1 ag val
COc1ccc(CN2CCC(=O)N([C@H](CO)c3ccccc3)CC2)cc1OC | ?
CCOC(=O)[C@H](CCc1ccccc1)N[C@@H](C)C(=O)N1CC2(C[C@H]1C(=O)O)SCCS2 | 4%
COc1ccc(C(=O)N2CCC3(CCCN(Cc4ccccc4)C3)CC2)cc1 | -3%
N#Cc1cccc(-c2ccc3ncnc(NC4CCNCC4)c3c2)c1 | -16%
COc1cccc(-c2cc(NCc3cccs3)ncn2)c1 | 7%
O=C(OCC1(COC(=O)c2cccnc2)CCCC(COC(=O)c2cccnc2)(COC(=O)c2cccnc2)C1O)c1cccnc1 | 17%
Nc1cc(N)cc(N)c1 | 10%
COc1cccc(-c2cncnc2Nc2ccc(F)cc2)c1 | -43%[inhibitor]
Cc1cc2c(c(-c3cnccn3)c1)OC(CNC(=O)c1cc(C(C)C)[nH]n1)C2 (stereo not given) | -22%
Cc1[nH]cnc1CN1CCc2c(c3ccccc3n2C)C1=O | -17%
CN(C)c1ncc2nc(-c3ccccc3)c(=O)n(-c3ccccc3)c2n1 | ?
C[C@@H]1[C@H](c2ccccc2)OCCS(=O)(=O)N1Cc1ccccc1Br | ?
N[C@@H](Cc1cc(I)c(Oc2ccc(O)c(I)c2)c(I)c1)C(=O)O | -15%&9%
O=C(c1cnccn1)N1CCC2(CCN(Cc3ccccc3)CC2)CC1 | -24%
CCC(C)(Oc1ccc(C2(c3ccc(OC(C)(CC)C(=O)O)cc3)CCCCC2)cc1)C(=O)O (stereo not given) | -3%
Nc1ncn(C2OC(CO)C(O)C2O)c(=O)n1 (stereo not given) | 14%
c1nc(N2CCOCC2)c2cc(-c3ccoc3)ccc2n1 | -6%
COC(=O)C1CCCCN1Cc1ccc2c(c1)CN(C(=O)c1cc(C)nc3cc(F)ccc13)CCO2 (stereo not given) | 4%
COc1ccc2c(=O)cc(-c3ccccc3)oc2c1O | -1%
O=C(NCC1(N2CCOCC2)CCCC1)c1cnn(-c2ncc3c(n2)-c2ccccc2CC3)c1C1CC1 | 9%
Cc1ccc(C(=O)NCCc2nnc3n2CCN(Cc2ccnc4ccccc24)CC3)c(C)c1 | -15%
CCSc1ccc2c(c1)N(CCCN1CCN(C)CC1)c1ccccc1S2 | -44%[inhibitor]
COc1cccc(-c2cc3c(c(OC)c2)OCCN(S(=O)(=O)c2ccccc2OC(F)(F)F)C3)n1 | 10%
NCC(O)C1CCCCCCC1 (stereo not given) | -7%
CN(C)Cc1ccccc1-c1nc(N(C)C)c2ccccc2n1 | -17%

The results go on.
Compound | EPAC1 ag val
Cc1nc2sccn2c1CN1Cc2ccccc2OC(c2ccccc2F)C1 (stereo not given) | 1%
Cc1cccc(C(=O)NCc2nc(-c3cccc(NC(=O)C4CCCN(C)C4)c3)oc2C)n1 (stereo not given) | -4%
COc1cc(CN2CCC3(CC2)c2ccccc2[C@@H](NC(=O)c2ccccc2OC)[C@@H]3O)ccc1F | -8%
CO[C@H]1[C@H](NC(=O)c2ccsc2)c2ccccc2C12CCN(Cc1cccn1-c1ccccn1)CC2 | -12%
Cc1nnc(C(C)C)n1C1C[C@H]2CC[C@@H](C1)N2CC[C@H](NC(=O)C1CCC(F)(F)CC1)c1ccccc1 (stereo not given in full) | 21%
CC(=O)[C@H]1CC[C@H]2C3CC=C4C[C@@H](O)CC[C@]4(C)C3CC[C@]12C (stereo not given in full) | -4%
COc1ccc(C(=O)N2CCC3(CCCN(C)C3)CC2)cc1 | -8%
CN(C)c1ccc(-c2nc(N3CCNCC3)c3ccccc3n2)cc1 | 17%
COC(=O)CCC(C)C1CCC2C3CC[C@H]4CC(O)CC[C@@]4(C)C3CC(O)[C@]12C (stereo not given in full) | -47%[inhibitor]
COc1cc(-c2noc(C)c2C#Cc2ccc(N)cc2)cc(OC)c1OC | ?
Cc1nc2cnc(N3CCNCC3)nc2n(Cc2ccc(F)cc2)c1=O | -56%[inhibitor]
Cn1cc(C2=C(c3ccc(Cl)cc3Cl)C(=O)NC2=O)c2ccccc21 | ?
CC1CC[C@@]2(OC1)OC1CC3C4CC=C5CC(O)CC[C@@]5(C)C4CC[C@]3(C)C1C2C (stereo not given in full) | 27%
O=c1ccn([C@@H]2O[C@H](COP(=O)(O)OP(=O)(O)OP(=O)(O)O)[C@@H](O)[C@H]2O)c(=O)[nH]1 | -12%
COc1ccccc1C1CN(Cc2c(C)nn(C)c2Cl)Cc2ccccc2O1 (stereo not given) | 9%
C=C[C@]1(C)C[C@@H](OC(=O)CSC(C)(C)CNC(=O)[C@H](N)C(C)C)[C@]2(C)[C@H](C)CC[C@]3(CCC(=O)[C@H]32)[C@@H](C)[C@@H]1O | -6%
O=C(O)c1cc(=O)c2cccc(O)c2[nH]1 | -17%&13%
COc1ccccc1N1CCN(CCCCNC(=O)c2ccc(-c3ccc(C(C)=O)cc3)cc2)CC1 | 9%&3%
Cc1nc2cnc(N3CCN(C)CC3)nc2n(CCC#N)c1=O | -43%[inhibitor]
C[C@H]1[C@@H](OC(=O)CCC(=O)O)O[C@@H]2OC3(C)CC[C@H]4[C@H](C)CC[C@@H]1[C@@]24OO3 | -9%
O=C(C[n+]1ccnc2ccccc21)c1ccc(Br)cc1 | -25%
CC(C)N(c1ccc(C=O)cc1)C(C)C | -1%
N#Cc1cccc(NC(=O)N2CCC3(CC2)CCN(C(=O)c2csnn2)CC3)c1 | -77%[inhibitor]
COCC(=O)Nc1cc(C(=O)N2CCc3c(Cl)cccc3C2)c2c(c1)nc(-c1ccncc1)n2C | -9%
Cc1o[nH]c(=O)c1CC[C@H](N)C(=O)O | -18%

(further entries)
Compound | EPAC1 ag val
N[C@H](C(=O)O)[C@H](O)C(=O)O | 16%&-15%&-9%
O=C(c1cnccn1)N1CCC2(CCCN(C(c3ccccc3)c3ccccc3)C2)CC1 | -34%
O=C(c1ccco1)N1CCC2(CCCN(C(c3ccccc3)c3ccccc3)C2)CC1 | ?
Cc1cc(-c2cc(F)cc3c2OC(CNC(=O)CCn2cncn2)C3)ccc1F (stereo not given) | 6%
CN(C)c1ncc2nc(-c3ccc(Cl)cc3)c(=O)n(-c3ccccc3)c2n1 | ?
COc1cccc(Nc2ncc3nc(-c4ccccc4)c(=O)n(C[C@H]4CCCO4)c3n2)c1 | -14%
COCC(=O)N1CCC2(CC1)CCN(C(=O)NC(C)C)CC2 | 16%
CCCCCCCCCCCCC(C(=O)O)C(C)C(=O)O (stereo not given) | 8%
CN(C)c1ncc2ncc(=O)n(C3CC3)c2n1 | 12%
COc1ccccc1C1CN(CC(=O)N2CCC(N3CCOCC3)CC2)Cc2ccccc2O1 (stereo not given) | -17%
COc1ccc(NC(=O)[C@@H]2CC=C[C@@H]3CCN(Cc4ccccc4)C(=O)[C@@H]32)cc1 | -17%
O=C(CCCN1CCC(C(=O)c2ccc(F)cc2)CC1)c1ccc(F)cc1 | 8%
C#C[C@]1(OC(C)=O)CC[C@H]2[C@@H]3CCC4=C[C@@H](OC(C)=O)CC[C@@H]4[C@H]3CC[C@@]21C | 45µM*!
Cc1cccc(C)c1NC(=O)NC1=CCCN1C | -24%
Cc1cnc(CNc2nc(-c3ccoc3)nc3ccccc23)cn1 | 10%
C[C@@H]1CN(Cc2ccc3c(c2)CN(Cc2cccn2-c2ccc(Cl)cn2)CCO3)C[C@H](C)O1 | -10%
N#Cc1cccc(NC(=O)N2CCCC3(CCN(C(=O)c4ccco4)CC3)C2)c1 | 3%
CC(C)CN1CC[C@@]2(CCCN(C(=O)c3ccco3)C2)C1 | -80%[inhibitor]
COc1ccc(CN2CCc3nnc(CCc4ccccc4)n3CC2)c(OC)c1C | -5%
COc1ccccc1-c1ccc2ncnc(NCc3cnc(C)cn3)c2c1 | 18%
CC(=O)N1CCC[C@@]2(CCN(c3ncccn3)C2)C1 | -14%
CC(=O)Nc1cc(C(=O)N2CCc3c(Cl)cccc3C2)cc2ncn(CCc3ccccn3)c12 | 1%
CN1CCN(c2nc(-c3cccc(NS(C)(=O)=O)c3)nc3ccccc23)CC1 | -13%
COc1ccc(-c2nc3cc(C)ccc3cc2CN(C(=O)c2cccs2)C2CC2)cc1OC | 24%
COc1ccc(CNc2ncnc3ccc(-c4ccc(C(=O)N(C)C)cc4)cc23)c(OC)c1 | -29%

Later entries
Compound | EPAC1 ag val
Cc1noc(C)c1-c1nccc(NCc2cccs2)n1 | -8%
Cc1nc2cncnc2n(Cc2ccccc2Cl)c1=O | 12%
N#Cc1cccc(NC(=O)N2CCCC3(CCN(C(=O)c4cc(C(F)(F)F)cc(C(F)(F)F)c4)CC3)C2)c1 | -73%[inhibitor]
CC1(COc2ccc(CC3SC(=O)NC3=O)cc2)CCCCC1 (stereo not given) | -13%&-107%
O=C1c2ccccc2CCC1CNCCc1ccc(O)cc1 (stereo not given) | -10%
Cc1cccc(C(=O)N[C@H]2CC[C@@H](n3cc(C(=O)N4CCCC4)nn3)CC2)c1 | 1%
CC12CCC3c4ccc(O)cc4CCC3C1CCC2=O (stereo not given) | -15%
COc1ccnc(CS(=O)c2nc3ccc(OC(F)F)cc3[nH]2)c1OC (stereo not given) | -9%
CCN1CCCC1=O | -34%[inhibitor]
COc1ncc2nc(-c3cccs3)c(=O)n(Cc3cccs3)c2n1 | ?
CN(Cc1ccco1)c1ncncc1-c1cccc(NS(C)(=O)=O)c1 | -16%
Cc1c(C(=O)N2CCOc3ccccc3C2)sc2ncnc(NCCCN3CCOCC3)c12 | -6%
COc1cc(O)cc(OC)c1OC | 24%
O=C(c1cnccn1)N1CCC2(CC1)CCN(C(c1ccccc1)c1ccccc1)CC2 | -58%[inhibitor]
CSc1nc(C(=O)N2CCc3c(cnc(C)c3CNC(=O)c3ccc4c(c3)OCO4)C2)cs1 | 5%
Cc1c(C(=O)N2CCC(Cc3ccccc3)CC2)sc2ncnc(NCc3ccccn3)c12 | -4%
Cc1cccc2cc(CN(CC3CCCO3)C(=O)c3ccccc3F)c(N(C)C)nc12 (stereo not given) | 2%
N#Cc1cccc(NC(=O)N2CC[C@@]3(CCCN(C(=O)c4cnccn4)C3)C2)c1 | -40%

Three compounds already listed, arranged by molar mass, ascending:
Compound | EPAC1 ag val
O=C(c1cnccn1)N1CCC2(CC1)CCN(C(c1ccccc1)c1ccccc1)CC2 | -58%[inhibitor]
Cc1c(C(=O)N2CCC(Cc3ccccc3)CC2)sc2ncnc(NCc3ccccn3)c12 | -4%
N#Cc1cccc(NC(=O)N2CCCC3(CCN(C(=O)c4cc(C(F)(F)F)cc(C(F)(F)F)c4)CC3)C2)c1 | -73%[inhibitor]

A few values from the list:
COc1ccc(CN2CCc3nnc(CCc4ccccc4)n3CC2)c(OC)c1C in EPAC1 ag val reads -5%
Cc1c(C(=O)N2CCOc3ccccc3C2)sc2ncnc(NCCCN3CCOCC3)c12 in EPAC1 ag val reads -6%
C#C[C@]1(OC(C)=O)CC[C@H]2[C@@H]3CCC4=C[C@@H](OC(C)=O)CC[C@@H]4[C@H]3CC[C@@]21C in EPAC1 ag val reads 45µM*!
